Assay outcomes (PubChem)
rRNA inh HTS: inhibits bacterial ribosomal RNA function over humanized ribosomes; E. coli WT GFP vs humanized-ribosome RFP mutants, fluorescence, 24 h; active compounds read low; DMSO median 0, no signal -100; GFP signal change (wild-type ribosome), % (no concentration beside the values); 350,000 tested, 1.6% active; AID 720706;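 active = significant combined selectivity score with lowered wild-type GFP, culture density cut under 30%, mutant RFP and density less affected; inactive = any of these conditions unmet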; note: one replicate is shown; some compounds called inactive have numbers as strong as hits
Vif TR-FRET: inhibitors of Vif binding to APOBEC3G peptide, primary screen, biochemical, TR-FRET, GST-Vif 1-94, biotin-A3G peptide, dose response retest (AID 1117319). TR-FRET GST-Vif / biotin-A3G peptide binding; higher % means a stronger effect; test concentration not given here; strong numbers were not always called active. inhibition, %, or IC50 in µM where a hit was titrated. 260,000 tested, 0.57% active;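 active = above the screen mean plus three standard deviations and confirmed in dose response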;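 note: Vif residues 1-94 fused to GST binding biotinylated APOBEC3G peptide 110-148; 0% = full assay without inhibitor and 100% = GST in place of GST-Vif; retest series ran down from 100 µM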
MLL AF4-AF9 inh: inhibitors of human MLL-AF4/AF9 interaction; P42568; AlphaScreen, biotin-AF4 peptide binding to FLAG-AF9; inhibition, % at 10 µM; 350,000 tested, 0.47% active;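 active = every replicate reaching a set inhibition limit, whatever the replicate mean, cut at about 25% in these data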;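 note: 0% = plate neutral control median and 100% = total signal loss; the record names both 10 and 1 µM as test concentration; the first replicate is given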
Target sequence (P42568 whole entry, looked up): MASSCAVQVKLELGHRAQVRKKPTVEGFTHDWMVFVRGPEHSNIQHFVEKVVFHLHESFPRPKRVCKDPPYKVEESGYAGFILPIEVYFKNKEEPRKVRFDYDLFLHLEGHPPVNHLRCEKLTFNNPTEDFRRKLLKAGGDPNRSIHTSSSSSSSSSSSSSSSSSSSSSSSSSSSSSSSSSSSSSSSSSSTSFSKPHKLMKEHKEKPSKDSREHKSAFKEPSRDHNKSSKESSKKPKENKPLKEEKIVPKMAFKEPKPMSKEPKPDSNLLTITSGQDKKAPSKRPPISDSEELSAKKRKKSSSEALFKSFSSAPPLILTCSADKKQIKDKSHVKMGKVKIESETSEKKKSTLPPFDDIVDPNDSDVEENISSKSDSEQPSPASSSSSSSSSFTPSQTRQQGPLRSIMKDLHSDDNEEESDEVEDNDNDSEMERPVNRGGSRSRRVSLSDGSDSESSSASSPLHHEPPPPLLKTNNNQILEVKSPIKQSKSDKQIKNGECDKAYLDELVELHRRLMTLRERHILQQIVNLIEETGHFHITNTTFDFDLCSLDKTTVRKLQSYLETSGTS
rRNA inh HTS OD600: second read-out of rRNA inh HTS, no call of its own (marks repeat the call); OD600 change, %; measured here: OD600 growth;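 optical density of the mix in the first replicate; 0 = DMSO median and -100 = no signal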
rRNA inh HTS RFP: second read-out of rRNA inh HTS, no call of its own (marks repeat the call); RFP signal change, %; measured here: RFP humanized mutant strains;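 first replicate; 0 = DMSO median and -100 = no signal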
* = called active by the depositor; & = joins results of further samples. Some of the compounds tested; the hit share may differ from the screen's.

SMILES	rRNA inh HTS	rRNA inh HTS OD600	rRNA inh HTS RFP	Vif TR-FRET	MLL AF4-AF9 inh
C[C@@H]1CN(S(=O)(=O)C(C)(C)C)[C@H](CCO)/C1=C\c1ccccc1	6	-2	-0.6	-3%	-2.4
CCCN(CCC)S(=O)(=O)c1cc2c(cc1Br)CCN2C(=O)CC	-15	-46	3.1	-3%	0.1
O=C(OCC(=O)c1c[nH]c2ccccc12)c1ccc(OC(F)F)cc1	5	0	11	5%	-2.0
O=C(N[C@@H](Cc1ccccc1)C(=O)N1CCN(S(=O)(=O)c2ccc(F)cc2)CC1)c1ccco1	5	7	0.5	-1%	-3.6
Cn1cnc2c(cnn2C)c1=O	14	12	3.2	2%	-4.0
C[C@@H]1CCCCO[C@@H](CN(C)S(=O)(=O)c2cn(C)cn2)[C@@H](C)CN([C@H](C)CO)C(=O)c2cc(NC(=O)Nc3ccc(C(F)(F)F)cc3)ccc2O1	3&4	5&-3	-0.2&-0.4	-1%	3.5
COCC(=O)Nc1ccc2c(c1)[C@@H]1C[C@H](CC(=O)OC)O[C@@H](CO)[C@@H]1O2	2&-2	10&-13	6.0&-2.7	1%	-4.3&-3.0
Cc1ccccc1Nc1nn2c(=O)c3ccc(C(=O)N4CCCC(C)C4)cc3nc2s1 (configuration not stated)	7	30	4.5	-1%	-4.3
O=c1c(=O)n(CCO)n(CCO)c(=O)n1CCO	4	10	-0.8	8%	-2.5
O=C(CNC(=O)N1CC(=O)Nc2ccccc21)NCCCc1ccccc1	15	22	0.7	-5%	-4.2
CCN(CCCNc1cc2c(c(N)c1S(=O)(=O)O)C(=O)c1ccccc1C2=O)c1ccccc1	-18	5	37	30%	61*
C=C(C)c1cccc(C(C)(C)NC(=O)N2CCN(C(=O)OCC)CC2)c1	-1	6	5.8	-1%	-0.8
C[C@H](CO)N1C[C@H](C)[C@@H](CN(C)S(=O)(=O)c2ccc(C#N)cc2)OCc2cnnn2CCCC1=O	15&-1	2&-3	0.9&-1.0	-3%	0.8&-0.1
N#Cc1ccc(CN(Nc2ccccc2)c2ccccc2)cc1	4	-9	-9.7	0%	-2.2
COc1ccc(Nc2c[nH]c(=O)[nH]c2=O)cc1	-2	7	-0.3	-1%	2.6
O=C(Cc1ccccc1)N[C@@H]1c2ccccc2CC[C@@H]1OCc1ccccc1	31	18	-1.2	-3%	-1.7
O=C(Cn1ccnc1[N+](=O)[O-])N(CCO)CCO	1	2	-4.0	-5%	-0.8
Cc1ccc(S(=O)(=O)N2CCC(=O)c3ccccc32)cc1	-10	-25	-3.6	-2%	-2.1
Cc1ncc([N+](=O)[O-])n1CC(=O)Nc1ccccc1Cl	24	0	7.2	-5%	-3.8
CCOc1ccccc1C=NNC(=O)CCCCC(=O)NN=Cc1ccccc1OCC	16	16	2.1	-5%	-3.5
Cc1[nH]nc2c(=S)[nH]c(=O)[nH]c12	8	22	1.3	-1%	-3.9
CN(C)c1ccc(C=Cc2cnccn2)cc1	-15	-6	-0.5	0%	19
CCCCCCn1c(=O)n2n(c1=O)[C@@H]1CN(S(=O)(=O)c3ccc(C)cc3)C[C@]1(O)[C@@H](OC(=O)NCC1CCCCC1)C2	0	-3	1.3	4%	-0.3
Cc1cc2c(SCc3ccccc3Cl)nc(N)nc2nc1C	11	4	26	-54%	-6.4
COc1cccc(N2CCN(C(=O)c3ccc(Cl)c(S(=O)(=O)N4CCCCCC4)c3)CC2)c1	8	5	-2.6	-11%	-2.2
CC(NC(=O)Oc1cccc2ccccc12)c1ccccc1 (configuration not stated)	-6	-22	6.0	-9%	-2.1
NC(=O)C1(Nc2ccc([N+](=O)[O-])cc2)CCCC1	0	18	-3.1	-3%	-2.5
C[C@H](NC(=O)c1ncn2c1C(=O)NC[C@@H]2C)C(=O)OC(C)(C)C	7	7	-1.6	3%	-1.6
Cc1ccc(S(=O)(=O)N2C[C@H]3n4c(=O)ccc(=O)n4C[C@H](OC(=O)NCc4ccccc4F)[C@@]3(O)C2)cc1	-4	-11	-1.0	-1%	-2.8
COC(=O)c1nc(NC(=O)c2ccccc2Br)n[nH]1	4	6	-1.8	9%	-1.9
O=C(CN1CCCC1c1cccs1)N1CCN(S(=O)(=O)c2ccccc2)CC1 (configuration not stated)	-4	-9	0.7	-14%	-1.9
CC1CCCCC1NC(=O)CN1C(=O)NC(C)(c2cccc(Br)c2)C1=O (configuration not stated)	-2	4	-4.2	-7%	-1.6
COc1cc(OC)c(C(=O)C=Cc2ccc(OC)c(OC)c2)c(OC)c1	-11*	-14*	4.4*	1%	8.3
CCn1c(O)c(N=NC(=O)CNC(=O)c2cccnc2)c2ccccc21	2	1	-2.8	-2%	-1.4
CC1(c2ccc3c(c2)OCCO3)NC(=O)N(CC(=O)Nc2ccccc2F)C1=O (configuration not stated)	5	8	1.5	2%	-0.1
COc1ccccc1-n1c(SCC(=O)Nc2ccc(Cl)cc2)nc(O)c(Cc2ccccc2)c1=O	-13	-17	-9.0	-1%	3.8
CC(C)NC(=O)C1CCN(Cc2cccc(OCc3ccccc3)c2)CC1	-4	17	8.4	0%	-0.7
COc1cccc(-c2n[nH]nc2C2=CC(=O)CC(C)(C)C2)c1	-6	-1	-1.8	4%	0.2
COc1ccc2[nH]c3c(C)c4cc[n+](C)cc4c(C)c3c2c1	-28	-70	-12	-15%	58*
O=C(O)c1ccc(CNC(=O)C2CCN(S(=O)(=O)c3cccs3)CC2)cc1	8	12	-1.7	-3%	1.7
Cc1ccc(OCC(=O)Nc2ccc(S(=O)(=O)NC3=NCCCCC3)cc2)cc1	1	-17	6.8	1%	1.0
O=C(N[C@@H](Cc1c[nH]c2ccccc12)C(=O)O)OCC1c2ccccc2-c2ccccc21	-21	-26	-0.2	4%	-1.6
O=C(NCc1ccncc1)C1CCN(S(=O)(=O)c2ccc(Cl)c(C(F)(F)F)c2)CC1	12	12	1.2	-10%	-5.1
CCN(CC)CCNc1ccc(CO)c2oc3ccccc3c(=O)c12	-11	-17	-2.3	0%	3.3
O=P1(NC2CCCCC2)OCC2(CO1)COP(=O)(NC1CCCCC1)OC2 (configuration not stated)	5	8	-0.4	-9%	-3.3

4 of these compounds in another layout:
Compound,rRNA inh HTS,rRNA inh HTS OD600,rRNA inh HTS RFP,Vif TR-FRET,MLL AF4-AF9 inh
O=C(CN1CCCC1c1cccs1)N1CCN(S(=O)(=O)c2ccccc2)CC1 (configuration not stated),-4,-9,0.7,-14%,-1.9
O=C(NCc1ccncc1)C1CCN(S(=O)(=O)c2ccc(Cl)c(C(F)(F)F)c2)CC1,12,12,1.2,-10%,-5.1
CC1(c2ccc3c(c2)OCCO3)NC(=O)N(CC(=O)Nc2ccccc2F)C1=O (configuration not stated),5,8,1.5,2%,-0.1
O=C(N[C@@H](Cc1c[nH]c2ccccc12)C(=O)O)OCC1c2ccccc2-c2ccccc21,-21,-26,-0.2,4%,-1.6

Next section:
SMILES	rRNA inh HTS	rRNA inh HTS OD600	rRNA inh HTS RFP	Vif TR-FRET	MLL AF4-AF9 inh
C[C@@H]1CCCCO[C@H](CN(C)S(=O)(=O)c2cccs2)[C@H](C)CN([C@@H](C)CO)C(=O)c2cc(NC(=O)NC3CCCCC3)ccc2O1	-2&-7	-3&-1	-0.8&-2.5	-5%	1.4
COc1ccc(Nc2cc(C)nc3ncnn23)cc1	10	9	-2.4	-3%	0.0
CC1CCC(NC(=O)CN2CCN(S(=O)(=O)c3ccc(Br)s3)CC2)CC1 (configuration not stated)	-52	-72	-20	10%	3.9
COc1ccc(OC)c(-c2cc(C(=O)O)c3cc4ccccc4cc3n2)c1	2	3	-0.3	-2%	-4.8
NC(=NCc1ccccc1)C(N=Nc1ccccc1)C(=O)NCc1ccccc1 (configuration not stated)	-16	-27	12	-4%	1.6
COc1ccc(S(=O)(=O)N2CCOCC2)cc1NC(=O)c1c(C)noc1C	7	11	-0.1	-8%	-12
Cc1noc(C)c1CSCC(=O)Nc1ccccc1N1CCCC1	2	4	1.9	-1%	-10.0
O=C(COc1ccccc1F)OCC(=O)N1CCc2ccccc21	2	-1	-2.4	0%	5.4
COC(=O)Cn1ccnc1[N+](=O)[O-]	2	1	-4.0	1%	-0.9
O=C(C[C@H]1C[C@H](C(=O)N2CCCCC2)[C@@]2(CCc3ccccc3)c3[nH]c4cc(-c5ccco5)ccc4c3CCN2C1=O)NCc1ccco1	14	20	41	-4%	3.2
COc1cc(OC)c(C=CC(=O)c2ccccc2O)c(OC)c1	9	22	-0.7	2%	4.0
CC[C@]12c3[nH]c4cc(CCC(=O)N(C)C)ccc4c3CCN1C(=O)[C@@H](CC(=O)NCCC1=CCCCC1)C[C@@H]2C(=O)N1CCN(C(=O)C2CC2)CC1	-1	1	-0.2	-2%	-1.9
C(=Nc1ccccc1)c1ccc[nH]1	7	13	3.8	-7%	-2.2
C[C@@H]1CN([C@@H](C)CO)C(=O)c2cc(NS(C)(=O)=O)ccc2O[C@@H]1CN(C)S(=O)(=O)c1ccccc1	3	6	1.0	-2%	0.1
CCOc1ccc(OCCC(=O)Nc2ccc(N3CCOCC3)cc2N2CCOCC2)cc1	-4	-3	2.9	5%	5.8
Cc1ccc(NC(=O)c2sc3ncn(CC(=O)N4CCN(c5ccccn5)CC4)c(=O)c3c2C)cc1	0	-5	4.0	-3%	-6.7
Cc1ccc([C@H]2C[C@H](n3cc(C4CC4)nn3)[C@@H](O)CN2C(=O)c2cccs2)cc1	5	4	4.6	8%	-1.0
COc1ccc(CCn2c(C)cc(C(=O)CN3C(=O)C(=O)N(C4CCCC4)C3=O)c2C)cc1OC	0	5	11	-1%	-0.6
CC(C)C1C(=O)N(Cc2cn(CC3CCCCC3)nn2)CCS(=O)(=O)N1Cc1ccc(-c2ccc(F)cc2)cc1 (configuration not stated)	18	20	-2.0	-1%	1.3
COc1cccc(-c2nnn(CC(=O)N(C3CCCCC3)C3CCS(=O)(=O)C3)n2)c1 (configuration not stated)	9	6	-1.8	-4%	-3.3
CN(C(=O)c1cccc(NC(=O)Cc2cccc(NC(=O)C3CCCN(C(=O)C4CCC4)C3)c2)c1)C1CC1 (configuration not stated)	-5	-5	-5.3	-9%	-3.2
CCCS(=O)(=O)c1nc(S(=O)(=O)c2ccc(C)cc2)c(N2CCCCC2)s1	-16	-29	-3.6	3%	-0.6
Cc1noc(C)c1C(=O)OCC(=O)NC1CCCCC1C (configuration not stated)	6	6	-2.7	6%	0.9
C[C@@H]1CCCCO[C@@H](CN(C)C(=O)c2ccccc2)[C@@H](C)CN([C@H](C)CO)C(=O)c2cc(N(C)C)ccc2O1	3&2	5&-1	0.7&-1.8	28%	-0.4&0.1&-1.1
COc1ccc(C(=O)Cc2ccccc2C(=O)O)cc1	5	9	-2.1	-3%	-4.4
O=C(O)c1ccccc1C(=O)OCC1CCC(=NO)CC1 (configuration not stated)	3	12	0.2	0%	-1.3
O=[N+]([O-])c1ccc(-c2cccnc2)cc1	-12	-9	-5.2	5%	-0.5
CC1CCCCC1NC(=O)NC(=O)COC(=O)c1cncc(Br)c1 (configuration not stated)	-10	-23	3.7	6%	-1.2
Cc1cc(C)c2c(=O)n3c(nc2c1)C(Cc1ccccc1)NC(=O)c1cc2ccccc2cc1-3 (configuration not stated)	9	39	5.3	-12%	0.1
CC(C)OC(=O)N(C)C[C@@H]1OCc2cnnn2CCCC(=O)N([C@@H](C)CO)C[C@H]1C	8&0	9&0	2.6&-1.7	-2%	-0.4&0.4&-2.8

Some of these compounds in order of the rRNA inh HTS RFP value, rising.
SMILES	rRNA inh HTS	rRNA inh HTS OD600	rRNA inh HTS RFP	Vif TR-FRET	MLL AF4-AF9 inh
CN(C(=O)c1cccc(NC(=O)Cc2cccc(NC(=O)C3CCCN(C(=O)C4CCC4)C3)c2)c1)C1CC1 (configuration not stated)	-5	-5	-5.3	-9%	-3.2
COc1ccc(C(=O)Cc2ccccc2C(=O)O)cc1	5	9	-2.1	-3%	-4.4
O=C(O)c1ccccc1C(=O)OCC1CCC(=NO)CC1 (configuration not stated)	3	12	0.2	0%	-1.3

(list continues)
SMILES	rRNA inh HTS	rRNA inh HTS OD600	rRNA inh HTS RFP	Vif TR-FRET	MLL AF4-AF9 inh
CC(Oc1ccccc1)C(=O)Nc1ccc(F)c(S(=O)(=O)N2CCOCC2)c1 (configuration not stated)	4	-1	2.1	2%	-2.8
CC12CCC3c4ccccc4CCC3(CO1)C2 (configuration not stated)	-3	-5	2.8	-11%	-0.4
CCOC(=O)C1=CN(C)CCC1=O	20	27	0.8	-6%	-4.3
COc1ccc(C(O)(c2ccccc2)C(C(=O)O)c2ccccc2)cc1 (configuration not stated)	0	-11	-0.9	-9%	-1.6
COc1ccc(CCNC(=O)c2ccc(CS(=O)(=O)Cc3ccc(C)cc3)o2)cc1OC	-2	4	1.2	-2%	-2.3
C[C@@H]1CN([C@@H](C)CO)S(=O)(=O)c2ccc(-c3ccccc3)cc2O[C@@H]1CN(C)Cc1ccccc1C(=O)O	-4&2	-3&11	4.2&-2.2	3%	2.2&-0.7&1.6
O=C(CCl)NC(Cc1ccccc1)C(=O)OCC(=O)c1ccc(-c2ccccc2)cc1 (configuration not stated)	2	13	0.5	-7%	-5.8
